Yeast_UUG_start: modulators of yeast start codon fidelity, primary screen, whole organism, S. cerevisiae, single point, plate reader; S. cerevisiae UUG-firefly luciferase reporter, luminescence/redox ratio; activity score, % at 18.7 µM; 350,000 compounds, 0.13% hits; AID 602363, 2012;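 active = replicate mean at a twofold rise or more, about +100% in these data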;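 also: firefly luciferase made from a UUG start codon reports start codon fidelity; reporter light over untreated wells divided by growth signal over untreated wells; some hits fall short of that in this replicate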
Env_fusion_inh: inhibitors of HIV-1 Env-driven cell-cell fusion, primary screen, HeLa-JRFL effector, CEM21 target cells, luciferase; inhibition, % at 12.3 µM; 360,000 compounds, 1.1% hits; AID 651610, 2012;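 active = mean replicate inhibition score of at least 50 and every replicate individually at or above 50; inconclusive = only one of the two criteria met; inactive = mean below 50 and not all replicates reaching 50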;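 also: 0% = plate neutral controls and 100% = maraviroc near 300 nM; one replicate is shown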
Active calls of the source: *; ? = inconclusive; [ ] = remark or other dose.

Sample of the layout:
SMILES Yeast_UUG_start Env_fusion_inh
C[C@@H]1CCCCO[C@@H](CN(C)Cc2ccc3c(c2)OCO3)[C@H](C)CN([C@H](C)CO)C(=O)c2cc(NS(=O)(=O)c3cn(C)cn3)ccc2O1 -3.3 -29.0[16.7_µM]
C[C@@H]1CCCCO[C@H](CN(C)S(=O)(=O)c2ccccc2)[C@@H](C)CN([C@H](C)CO)C(=O)c2cc(NC(=O)Nc3ccc(C(F)(F)F)cc3)ccc2O1 10.4 18.1[16.7_µM]

The listing, repeating the preview:
SMILES Yeast_UUG_start Env_fusion_inh
C[C@@H]1CCCCO[C@@H](CN(C)Cc2ccc3c(c2)OCO3)[C@H](C)CN([C@H](C)CO)C(=O)c2cc(NS(=O)(=O)c3cn(C)cn3)ccc2O1 -3.3 -29.0[16.7_µM]
C[C@@H]1CCCCO[C@H](CN(C)S(=O)(=O)c2ccccc2)[C@@H](C)CN([C@H](C)CO)C(=O)c2cc(NC(=O)Nc3ccc(C(F)(F)F)cc3)ccc2O1 10.4 18.1[16.7_µM]
COc1ccc(CN(C)C[C@H]2OCCCC[C@@H](C)Oc3ccc(NC(=O)Nc4ccc5c(c4)OCO5)cc3C(=O)N([C@@H](C)CO)C[C@@H]2C)cc1 11.7 -73.3[16.7_µM]
CO[C@H]1CN(C)C(=O)c2cc(NC(C)=O)ccc2OC[C@H](C)N(C(=O)c2ccncc2)C[C@@H]1C -4.3 27.4[16.7_µM]
Cc1noc(C)c1S(=O)(=O)Nc1ccc2c(c1)C(=O)N([C@H](C)CO)C[C@H](C)[C@H](CN(C)Cc1ccc(Cl)c(Cl)c1)O2 -2.5 -29.4[16.7_µM]
C[C@H](CO)N1C[C@H](C)[C@H](CN(C)S(=O)(=O)c2ccc(F)cc2)Oc2c(NS(=O)(=O)c3ccccc3)cccc2C1=O 3.8 -3.3[16.7_µM]
O=C(Nc1ccc2c(c1)OCO2)N[C@@H]1CC[C@H](CCNC(=O)C2CCC2)O[C@@H]1CO -7.6 -1.2[16.7_µM]
C[C@@H]1CN([C@H](C)CO)C(=O)c2cc(C3=CCCCC3)cnc2O[C@H]1CN(C)S(=O)(=O)c1cn(C)cn1 27.9 20.7[16.7_µM]
COc1ccc(NC(=O)N(C)C[C@@H]2Oc3ccc(NC(=O)Nc4c(C)noc4C)cc3CC(=O)N([C@H](C)CO)C[C@@H]2C)cc1 -4.0 -9.7[16.7_µM]
C[C@@H]1CN([C@@H](C)CO)C(=O)c2cc(NS(C)(=O)=O)ccc2O[C@@H](C)CCCCO[C@H]1CN(C)S(=O)(=O)c1ccc(F)cc1 9.6 -3.4[16.7_µM]
C[C@@H]1CCCCO[C@H](CN(C)C(=O)Nc2ccc3c(c2)OCO3)[C@@H](C)CN([C@H](C)CO)C(=O)c2cc(NS(=O)(=O)c3cccs3)ccc2O1 -4.6 -13.3[16.7_µM]
COc1ccc(NC(=O)N(C)C[C@H]2Oc3ccc(NS(=O)(=O)c4ccc(Cl)cc4)cc3C(=O)N([C@@H](C)CO)C[C@@H]2C)cc1 18.8 8.6[16.7_µM]
C[C@H](CO)N1C[C@H](C)[C@H](CN(C)C(=O)Cc2ccccc2)Oc2cc(-c3cncnc3)ccc2S1(=O)=O 18.1 -3.5[16.7_µM]
C[C@H]1CCCCO[C@@H](CN(C)Cc2ccc(C(=O)O)cc2)[C@@H](C)CN([C@@H](C)CO)C(=O)c2cc(NS(=O)(=O)c3cccs3)ccc2O1 16.9 10.0[16.7_µM]
C[C@@H]1CN([C@@H](C)CO)C(=O)c2cc(NS(=O)(=O)c3ccc(F)cc3)ccc2O[C@H]1CN(C)S(=O)(=O)c1cccs1 5.4 -21.0[16.7_µM]
C[C@H]1CN([C@@H](C)CO)C(=O)Cc2cc(NC(=O)C3CC3)ccc2O[C@H]1CN(C)Cc1ccc(C(=O)Nc2ccccc2N)cc1 -8.4 -128.7[16.7_µM]
O=C(C[C@H]1CC[C@@H](NC(=O)c2ccccn2)[C@@H](CO)O1)NCc1cc(F)cc(F)c1 0.7 -6.6[16.7_µM]
C[C@@H]1CN([C@H](C)CO)C(=O)c2cc(NS(C)(=O)=O)ccc2O[C@H]1CN(C)Cc1ccccc1 -22.6 -3.5[16.7_µM]
O=C(N[C@@H]1C=C[C@@H](CC(=O)N2CCOCC2)O[C@H]1CO)c1ccc2c(c1)OCO2 -6.2 11.4[16.7_µM]
C[C@H]1CN([C@@H](C)CO)C(=O)c2cc(NS(=O)(=O)c3cn(C)cn3)ccc2O[C@@H]1CN(C)Cc1ccccc1 -6.1 11.0[16.7_µM]
C[C@H]1CN([C@@H](C)CO)S(=O)(=O)c2ccc(C#Cc3ccc(F)cc3)cc2O[C@H]1CN(C)S(C)(=O)=O 4.6 -10.7[16.7_µM]
COc1cccc(S(=O)(=O)N[C@@H]2CC[C@@H](CCNC(=O)Cc3ccncc3)O[C@H]2CO)c1 0.2 -3.4[16.7_µM]
C[C@@H]1CCCCO[C@H](CN(C)C(=O)Nc2ccc(C(F)(F)F)cc2)[C@H](C)CN([C@H](C)CO)C(=O)c2cc(NC(=O)Nc3cccc4ccccc34)ccc2O1 -10.7 8.8[16.7_µM]
CC(C)c1cn(CC[C@H]2CC[C@@H](NS(=O)(=O)c3ccc(Cl)cc3)[C@@H](CO)O2)nn1 4.8 15.7[16.7_µM]
CC(C)NC(=O)N(C)C[C@@H]1Oc2ccc(NC(=O)Nc3ccc(F)cc3)cc2CC(=O)N([C@@H](C)CO)C[C@@H]1C 0.4 27.8[16.7_µM]

Following part
SMILES Yeast_UUG_start Env_fusion_inh
Cc1noc(C)c1NC(=O)N(C)C[C@@H]1Oc2ccc(NC(=O)Nc3ccc(F)cc3)cc2CC(=O)N([C@@H](C)CO)C[C@H]1C 8.1 21.0[16.7_µM]
Cc1ccc(S(=O)(=O)N[C@@H]2CC[C@H](CCn3cc(C4CCCCC4)nn3)O[C@H]2CO)cc1 -17.3 ?
COCC(=O)Nc1ccc2c(c1)C(=O)N(C)[C@@H]1CC[C@@H](CC(=O)NCCc3ccccc3)O[C@H]1CO2 -3.7 -15.8[16.7_µM]
C[C@H](CO)N1C[C@H](C)[C@H](CN(C)S(=O)(=O)c2cn(C)cn2)Oc2cc(C#Cc3cccc(F)c3)ccc2S1(=O)=O 12.0 -2.2[16.7_µM]
C[C@@H]1CN([C@H](C)CO)C(=O)c2cccc(NC(=O)Nc3ccc(F)cc3)c2O[C@H]1CN(C)C(=O)Nc1ccc(F)cc1 1.7 10.3[16.7_µM]
COc1cccc(C(=O)Nc2ccc3c(c2)OC[C@@H](C)N(C)C[C@H](C)[C@@H](OC)CN(C)C3=O)c1 3.5 -12.4[16.7_µM]
CO[C@H]1CN(C)C(=O)c2cc(NC(=O)c3ccc(F)cc3)ccc2OC[C@@H](C)N(C(=O)CN(C)C)C[C@H]1C -1.1 -5.4[16.7_µM]
COc1ccc(CN(C)C[C@H]2Oc3ccc(NC(=O)Nc4ccc5c(c4)OCO5)cc3C(=O)N([C@@H](C)CO)C[C@H]2C)cc1 6.1 12.4[16.7_µM]
Cc1ccc(S(=O)(=O)N(C)C[C@@H]2OCCCC[C@H](C)Oc3ccc(NC(=O)Nc4c(C)noc4C)cc3C(=O)N([C@H](C)CO)C[C@@H]2C)cc1 -8.7 -38.8[16.7_µM]
CCCNC(=O)N(C)C[C@H]1Oc2ncc(-c3ccc(C(=O)N(C)C)cc3)cc2C(=O)N([C@@H](C)CO)C[C@H]1C -1.2 -15.0[16.7_µM]
Cc1ccc(S(=O)(=O)NCC[C@@H]2CC[C@H](NC(=O)c3cnccn3)[C@H](CO)O2)cc1 2.5 -9.6[16.7_µM]
Cc1noc(C)c1NC(=O)Nc1ccc2c(c1)CC(=O)N([C@H](C)CO)C[C@@H](C)[C@@H](CN(C)S(=O)(=O)c1cccs1)O2 10.1 -2.8[16.7_µM]
CCC(=O)Nc1ccc2c(c1)OC[C@H](C)N(Cc1ccccc1C(=O)O)C[C@@H](C)[C@@H](OC)CN(C)C2=O -1.6 8.1[16.7_µM]
C[C@@H]1CN([C@H](C)CO)C(=O)c2cc(NC(=O)Nc3ccccc3)ccc2O[C@@H](C)CCCCO[C@H]1CN(C)C 11.3 -2.2[16.7_µM]
C[C@H](CO)N1C[C@H](C)[C@H](CN(C)C(=O)Cc2ccccc2)OCCCC[C@H](C)Oc2ccc(NC(=O)C3CCCCC3)cc2C1=O 27.4 -10.1[16.7_µM]
CCCNC(=O)C[C@H]1C[C@H]2c3cc(NC(=O)c4cccnc4)ccc3O[C@H]2[C@H](CO)O1 -1.4 27.8[16.7_µM]
Cc1cc(C(=O)Nc2ccc3c(c2)C(=O)N(C)[C@H]2CC[C@@H](CC(=O)O)O[C@H]2CO3)no1 3.4 18.1[16.7_µM]
C[C@@H]1CN([C@H](C)CO)C(=O)c2cc(NS(=O)(=O)c3ccccc3)ccc2O[C@@H]1CN(C)Cc1ccc(C(=O)Nc2ccccc2N)cc1 -0.1 1.7[16.7_µM]
C[C@H]1CN([C@@H](C)CO)C(=O)c2cccc(NC(=O)C3CCOCC3)c2O[C@H]1CN(C)C(=O)NC1CCCCC1 1.3 2.8[16.7_µM]
C[C@H](CO)N1C[C@H](C)[C@H](CN(C)Cc2ccc(-c3ccccc3)cc2)Oc2c(NC(=O)c3ccc(-c4nccs4)cc3)cccc2C1=O 2.1 -0.1[16.7_µM]
C[C@@H]1CN([C@@H](C)CO)C(=O)c2cc(C#CC3CCCCC3)cnc2O[C@H]1CN(C)Cc1cccnc1 0.9 8.6[16.7_µM]
C[C@@H]1CCCCO[C@H](CN(C)S(=O)(=O)c2ccccc2)[C@@H](C)CN([C@@H](C)CO)C(=O)c2cc(NC(=O)Nc3ccccc3)ccc2O1 -7.8 -19.3[16.7_µM]
O=C(C[C@@H]1CC[C@H](NC(=O)c2ccccc2)[C@H](CO)O1)NCCc1ccncc1 -4.6 8.1[16.7_µM]
C[C@@H]1CCCCO[C@H](CN(C)Cc2ccc(Cl)c(Cl)c2)[C@H](C)CN([C@@H](C)CO)C(=O)c2cc(NC(=O)c3ccccc3)ccc2O1 28.4 -3.5[16.7_µM]
Cc1noc(C)c1S(=O)(=O)Nc1ccc2c(c1)C(=O)N([C@@H](C)CO)C[C@H](C)[C@@H](CN(C)CC1CCCCC1)OCCCC[C@@H](C)O2 11.3 -44.9[16.7_µM]

(more compounds)
SMILES Yeast_UUG_start Env_fusion_inh
C[C@@H]1CN([C@H](C)CO)S(=O)(=O)c2ccc(C#CC3CC3)cc2O[C@@H]1CN(C)C -7.2 25.2[16.7_µM]
COc1ccc(CN(C)C[C@@H]2OCCCC[C@H](C)Oc3ccc(NC(=O)NC4CCCCC4)cc3C(=O)N([C@@H](C)CO)C[C@H]2C)cc1 21.7 -12.4[16.7_µM]
C[C@@H]1CCCCO[C@@H](CN(C)C(=O)Nc2ccccc2)[C@H](C)CN([C@H](C)CO)C(=O)c2cc(NC(=O)CCC(F)(F)F)ccc2O1 19.9 65.7*[16.7_µM]
Cc1ccc(S(=O)(=O)N[C@H]2CC[C@@H](CCNS(=O)(=O)Cc3ccccc3)O[C@@H]2CO)cc1 1.3 4.8[16.7_µM]
CC(=O)N(C)C[C@H]1Oc2cc(C#Cc3ccccc3F)ccc2S(=O)(=O)N([C@H](C)CO)C[C@H]1C -6.7 18.1[16.7_µM]
C[C@H](NC(=O)C[C@H]1CC[C@@H](NC(=O)C2CCC2)[C@H](CO)O1)c1ccccc1 -17.3 -49.3[16.7_µM]
C[C@H]1CN([C@@H](C)CO)C(=O)c2cccc(NC(=O)c3ccncc3)c2O[C@H]1CN(C)C(=O)Nc1cccc2ccccc12 -1.5 21.8[16.7_µM]
C[C@H](CO)N1C[C@H](C)[C@H](CN(C)C(=O)C2CC2)Oc2cc(-c3ccccc3)ccc2S1(=O)=O -7.9 26.0[16.7_µM]
CC(C)NC(=O)Nc1ccc2c(c1)C(=O)N([C@H](C)CO)C[C@@H](C)[C@@H](CN(C)C(=O)Nc1ccc(C(F)(F)F)cc1)O2 -0.6 13.3[16.7_µM]
O=C(C[C@@H]1CC[C@@H](NS(=O)(=O)c2cccc(F)c2)[C@@H](CO)O1)N1CCCCC1 -8.4 -6.8[16.7_µM]
CC(C)CC#Cc1ccc2c(c1)O[C@H](CN(C)CC1CCOCC1)[C@H](C)CN([C@H](C)CO)S2(=O)=O -15.1 -6.3[16.7_µM]
CCCNC(=O)C[C@@H]1CC[C@H]2[C@@H](COc3ccc(NC(=O)c4cccc(F)c4)cc3C(=O)N2C)O1 -5.6 8.6[16.7_µM]
C/C(Nc1ccc(Cl)c(Cl)c1)=C1/CCOC1=O -8.5 -5.7
O=C(C[C@@H]1C=C[C@H](NC(=O)Nc2ccc(F)cc2)[C@@H](CO)O1)NCc1ccccn1 -13.2 3.7[16.7_µM]
C[C@H](CO)N1C[C@H](C)[C@H](CN(C)C(=O)Nc2cccc3ccccc23)Oc2c(NC(=O)Nc3ccc(F)cc3)cccc2C1=O 1.7 -9.3[16.7_µM]
O=C(C[C@H]1CC[C@@H](NC(=O)c2ccc3c(c2)OCO3)[C@@H](CO)O1)NC1Cc2ccccc2C1 2.3 6.3[16.7_µM]
COc1ccc(S(=O)(=O)N(C)C[C@@H]2Oc3c(NC(=O)Nc4cccc5ccccc45)cccc3C(=O)N([C@H](C)CO)C[C@H]2C)cc1 4.4 -43.0[16.7_µM]
N#C[C@@H]1[C@H](c2ccc(C3=CCCCC3)cc2)[C@@H](CO)N1S(=O)(=O)c1cccc(F)c1 -10.0 -6.2[16.7_µM]

Sorted by heavy-atom count (largest number first): some entries from above.
SMILES Yeast_UUG_start Env_fusion_inh
C[C@@H]1CCCCO[C@@H](CN(C)C(=O)Nc2ccccc2)[C@H](C)CN([C@H](C)CO)C(=O)c2cc(NC(=O)CCC(F)(F)F)ccc2O1 19.9 65.7*[16.7_µM]
Cc1ccc(S(=O)(=O)N[C@H]2CC[C@@H](CCNS(=O)(=O)Cc3ccccc3)O[C@@H]2CO)cc1 1.3 4.8[16.7_µM]
O=C(C[C@@H]1CC[C@@H](NS(=O)(=O)c2cccc(F)c2)[C@@H](CO)O1)N1CCCCC1 -8.4 -6.8[16.7_µM]

Screening results from PubChem.

The list is partial; rates above refer to the full screens.
